NPYLR7 agonist = activates Aedes aegypti NPYLR7 receptor | HEK293T NPYLR7/Galpha15, GCaMP6s calcium fluorescence | 0.15% of 270,000 active | activation, % at 10 µM; in the data active = activation above about 40%;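 note: 0% = vehicle and 100% = reference agonist at the receptor; some compounds past the cut are filed as inactive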
NPYLR7 agonist max-min = also measured in NPYLR7 agonist; calls as there; activation, %; measured here: Max-Min RFU normalised activation; some inactives read as strong as hits;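 span of the calcium signal over five minutes; 0% = vehicle and 100% = native peptide agonist; compound fluorescence can raise it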
Active calls of the source: *; & = joins results of further samples. An excerpt; count on the stated rates, not on these rows.

Every second line gives: NPYLR7 agonist | NPYLR7 agonist max-min
O=C(Cn1cnc2ccccc2c1=O)NC1CCc2cc(Cl)ccc21 (stereo not given)
  3 | 1
CCOc1ccccc1-c1nc(CC(=O)NC2CCS(=O)(=O)C2)cs1 (stereo not given)
  6 | 2
CCN(CC)C(=O)c1csc(COc2ccc3c(c2)OCO3)n1
  -6 | -5
COCc1cc(N2CCN(c3ccccc3F)CC2)nc(SCc2ccc(C(=O)N3CCOCC3)cc2)n1
  5 | 6
O=C(NC1CCc2ccccc21)c1ccc(-c2cc(-c3ccccc3)n[nH]2)cc1 (stereo not given)
  18 | 15
CCOC(=O)c1sc(NC(=O)C(C)Oc2ccc(Cl)cc2)nc1C (stereo not given)
  2 | -1
CS(=O)(=O)c1ccc(-c2ccccc2C(=O)N2CCN(C(=O)c3ccco3)CC2)cc1
  -3 | -14
CCOC(=O)N1CCN(Cc2cnc(S(C)(=O)=O)n2CC2CCCO2)CC1 (stereo not given)
  4 | 1
COCCCNC(=O)c1nn(-c2ccc(OC)cc2)c(=O)n(Cc2ccc(F)cc2)c1=O
  3 | 6
O=C(NC1CCN(C(=O)c2c(F)cccc2F)CC1)c1ccsc1
  -4 | -6
CC(C)CN(CCC(=O)N1CCOCC1)c1nc(-c2ccco2)nc2cc(Cl)ccc12
  15 | 24
Cc1ccccc1OCC(=O)NC(C(=O)N/N=C\c1ccc(Cl)c([N+](=O)[O-])c1)C(C)C (stereo not given)
  4 | 5
COCC1(Cn2cnc(-c3ccccc3)c2-c2cccc3cnccc23)CC1
  -5 | -4
Cn1c(CCC(=O)N2CCC3(CC2)C(=O)Nc2ccccc23)nc2cccnc21
  -1 | -3
CC(Sc1nnc(SC(C)C(=O)NC2CCCC2)s1)C(=O)NC1CCCC1 (stereo not given)
  1 | 6

Later entries.
Every second line gives: NPYLR7 agonist | NPYLR7 agonist max-min
Cc1nnc2c(NC3CC3)nc3ccccc3n12
  5 | 4
Cc1ccc(S(N)(=O)=O)cc1C#N
  1 | -2
Cc1cc(C(=O)N(Cc2ccccn2)c2nc3c(C)c(C)ccc3s2)on1
  9 | 9
O=C(Nc1ncnc2sccc12)c1ccc(C(=O)c2ccccc2)cc1
  -6 | -7
CC(C)c1cc(C(C)C)n(C2CCN(S(=O)(=O)c3ccc(OC(F)(F)F)cc3)CC2)n1
  10 | 1
O=C(NCc1ncn[nH]1)C1CCCN(C2CCN(Cc3cccnc3)CC2)C1 (stereo not given)
  1 | 0
Cn1nc(C(C)(C)C)cc1NC(=O)C1(C)CCN1C(=O)C1(c2ccccc2)CCCC1 (stereo not given)
  14 | 17
CC(C)N1CCC1(C)C(=O)Nc1cc(Cl)ccc1F (stereo not given)
  1 | -1
CCOC(=O)C1(Cc2ccc(OC)cc2)CCN(C(=O)[C@H](CCSC)NC(C)=O)CC1
  18 | 6
Cn1c(=O)n(Cc2ccc(F)cc2)c(=O)c2c1nc1oc(-c3ccc(F)cc3)cn12
  6 | 9
Cc1ccc(OCCC(=O)NCCc2ccc(OC(F)F)cc2)cc1
  -2 | -4
COC(=O)C(c1ccc(Br)cc1)N(C)Cc1ccccn1 (stereo not given)
  6 | 3
O=C(O)c1cc(-c2cccc3ncccc23)cc(S(=O)(=O)NC2CC2)c1
  4 | 0
O=C(Nc1ccc(-c2nc3ccccc3o2)c(O)c1)c1ccc2c(c1)OCCO2
  -3 | -2
OCCn1c(COc2ccc(Cl)cc2Cl)nc2ccc(Cl)cc21
  10 | 9

Next results
Every second line gives: NPYLR7 agonist | NPYLR7 agonist max-min
Cc1cc(-c2ccccc2)nc(=S)[nH]1
  -3 | -7
O=C(CCCNC(=O)OCc1ccccc1)NCCSC1Sc2ccccc2NC1=O (stereo not given)
  -8 | -13
Cc1ccc(NC(=O)CNc2ccc(Cl)cc2F)cc1
  4 | 1
CC(=NNC(=O)CCn1c2ccccc2c2ccccc21)c1ccc(Cl)s1
  3 | 3
CC(=NNC(=O)COc1ccc(F)cc1)c1ccc2c(c1)Nc1ccccc1S2
  -2 | -6
Cn1ccnc1-c1nccn1-c1cccc(CN2CCCC2)c1
  0 | -4
COc1ccc2nc(-c3ccc(C)c(NS(=O)(=O)c4ccccc4)c3)cn2n1
  -7 | -11
O=C(Cn1nc(-c2ccccc2)c2sc(N3CCCCC3)nc2c1=O)OCc1ccccc1
  -4 | -8
O=C(NCc1ccccc1CN1CCCC1=O)c1sccc1Cl
  6 | 5
Clc1ccc2nc(-c3ccccn3)c(Nc3ccc4c(c3)OCO4)n2c1
  1 | -4
COc1ccc(Oc2cc(N3CCc4ccccc4C3)ncn2)cc1
  -9 | -6
O=[N+]([O-])c1ccc(-c2nn3c(-c4ccccc4)nnc3s2)o1
  0 | -4
COc1ccc(CN2CCN(C(=O)c3nc4ncccn4n3)CC2=O)cc1
  11 | 4
CC(C)(C)C1CCCC/C1=N/NC(=O)c1ccccc1Br (stereo not given)
  3 | 1
CCOc1ccccc1N1C(=O)CSC1c1ccc(NS(=O)(=O)c2ccc(C)cc2)cc1 (stereo not given)
  -2 | 11

(next part)
Every second line gives: NPYLR7 agonist | NPYLR7 agonist max-min
CCc1nc(C)c(C(=O)N2CCC(O)(c3ccccc3)C2)s1 (stereo not given)
  -1 | -7
CCc1nc(C)c(C(=O)Nc2cnc3n2CCCC3)o1
  20 | 11
C=CCN1C(=O)NC(c2cccc(Cl)c2)C2=C1CN(CC(=O)NCc1ccc(-c3ccccc3)cc1)C2=O (stereo not given)
  -2 | 10
O=C(CSc1nnc(CNC(=O)c2cccs2)n1-c1ccc(F)cc1)Nc1nc2ccccc2s1
  -5 | -2
C=C1c2ccccc2NC(=O)N1CC(C(C)C)N1CCOCC1 (stereo not given)
  5 | 4
COc1ccc(C(O)P(=O)(OC2CCCCC2)c2ccc(N(C)C)cc2)cc1OC (stereo not given)
  0 | 5
N#Cc1c(C2CCOC2)cc(-c2ccc(O)cc2)nc1N (stereo not given)
  16 | 10
CCOc1ccccc1CN1CCN(Cc2c[nH]c3ccccc23)CC1CCO (stereo not given)
  3 | -1
O=C(Nc1cccc(-c2ccsc2)c1)N1CCCC(O)C1 (stereo not given)
  17 | 12
O=C(Nc1ccncc1)c1ccc(CNS(=O)(=O)c2ccccc2F)cc1
  -1 | -3
COc1ccccc1C(=O)N1CCSC1c1ccc(OCc2ccccc2)cc1 (stereo not given)
  8 | 16
Cc1cc(-n2c(C)cc(C(=O)NC(C)C)c2C)no1
  -1 | -1
CSc1nnc(C)c(=O)n1COC(=O)c1ccc([N+](=O)[O-])cc1
  -2 | 0
Oc1[nH]c2ccc(F)cc2c1N=Nc1ccc(F)cc1F
  -2 | -7
COc1cc(S(=O)(=O)NCc2ccco2)c(OC)cc1Cl
  6 | -1

The results go on:
Every second line gives: NPYLR7 agonist | NPYLR7 agonist max-min
COc1cc(CNC(C)c2cnn(-c3cccc4ccccc34)c2C)cc2c1OCO2 (stereo not given)
  9 | -3
CCNC(=O)NC(=O)C(C)OC(=O)c1c(F)cccc1Cl (stereo not given)
  -2 | -2
O=C(NCCOc1ccc(-c2ccc(F)cc2)nn1)C1CCCC1
  -4 | -4
O=C(O)CN1C(=O)/C(=C\c2ccccc2OCc2cccc3ccccc23)SC1=S
  -7 | -13
CCOC1=NN(c2ccc([N+](=O)[O-])cc2)C(=O)/C1=C\c1ccc(OCC)cc1
  1 | 7
O=c1oc2ccc([N+](=O)[O-])cc2cc1-c1csc(Nc2cc(C(F)(F)F)ccc2Cl)n1
  -3 | -8
COCc1cc(C)nc(OCC(=O)N/N=C\c2ccc(-c3ccc(Cl)cc3Cl)o2)c1C#N
  -10 | -19
NC(=O)C1CCN(S(=O)(=O)c2ccc(Cl)cc2Cl)CC1
  4 | 5
Cc1ccc(CN(CC(O)COCC(C)C)CC2CC2)o1 (stereo not given)
  14 | 13
Cc1nn(C(C)(C)C)c(OC(=O)c2ccc3c(c2)OCO3)c1S(=O)(=O)c1ccccc1
  0 | 43
CC1CCc2sc(C(=O)O)cc2C1 (stereo not given)
  3 | 4
Cc1ccn(CC(=O)N2CCC(C3(Cc4cccc(F)c4)NC(=O)N(CC(C)C)C3=O)CC2)n1 (stereo not given)
  4 | 1
COc1cccc(C2=NC(=O)C(CC(=O)Nc3cc(C(F)(F)F)ccc3Cl)S2)c1 (stereo not given)
  3 | 4
O=C(CN1CCCC(C(F)(F)F)C1)Nc1nccs1 (stereo not given)
  2 | 0
CC1CC(Sc2nnc(-c3ccc(C(C)(C)C)cc3)n2C2CCCC2)C(=O)O1 (stereo not given)
  0 | 5

Further records follow:
Every second line gives: NPYLR7 agonist | NPYLR7 agonist max-min
CCCCNC(=O)CC1Nc2cc(C)c(C)cc2NC1=O (stereo not given)
  0 | -2
CCOC(=O)C1(CCc2ccccc2)CCN(C(=O)c2cc3ccccc3o2)CC1
  0 | 6
CC(C)Cc1cnc2c(c1SCC(=O)Nc1nccs1)c(=O)n(C)c(=O)n2C
  4 | 5
CC1CCN(C(=O)c2cc(-c3ccccc3F)nc3cc(-c4ccccc4)nn23)CC1
  7 | 11
CCOC(=O)N1CCN(Cc2ccc3c(c2)CN(C(=O)C#Cc2ccccc2)CCO3)CC1
  17 | 3
CN(C)C(=O)Sc1cccc(NC(=O)c2cccc(N(C)C)c2)c1
  6 | 5
CCOc1ccc2nc(NC(=O)CCS(=O)(=O)c3ccc(F)cc3)sc2c1
  12 | 16
CCOC(=O)Cn1c(O)c(N=NC(=O)CNC(=O)/C=C/c2ccccc2OC)c2ccccc21
  10 | 13
CC(C)(C)NC(=O)COc1ccccc1C(=O)N1CCCCC1
  -1&10 | -3&3
Cc1ccc(N(C(C)C)S(=O)(=O)c2cncc(F)c2)cc1
  4 | 3
C=C(C)CN(C)C(=O)c1coc(COc2ccc3c(c2)OCO3)n1
  1 | -1
CCNC(=O)N(Cc1cc(NC(=O)c2cccc(F)c2)ccc1N(C)C)C(C)C
  -3 | -3
COC(=O)C1=C(O)/C(=C\c2ccc(OC)c(OC)c2OC)SC1=Nc1ccc(C(F)(F)F)cc1
  -8 | -2
CCC1=NN(C(=O)c2ccc(C)cc2)C(O)(c2ccncc2)C1 (stereo not given)
  -2 | -2
Cc1ncc(CN2CCC(N3CCC(C(=O)N4CCCC4)CC3)CC2)s1
  -4 | -2

Other compounds
Every second line gives: NPYLR7 agonist | NPYLR7 agonist max-min
O=C(O)c1ccc(N2C(=O)C3C4C=CC(C5CC45)C3C2=O)cc1 (stereo not given)
  -2 | -15
N#CC1=C2SCCCN2C(=O)C(C#N)C12CCCCC2 (stereo not given)
  4 | 2
CN1CCN(c2ccc(NC(=O)COc3ccccc3F)cn2)CC1
  1 | 0
Cc1nnc(CN(C)C(=O)c2cc(CN(C)Cc3ccccc3)on2)o1
  -6 | -14
Cc1ccccc1CN(Cc1ccccc1)Cc1cccn1Cc1cccc(F)c1
  21 | 30
O=C(O)CNc1ncnc2sc3c(c12)CCCC3
  2 | 58
CCc1nc2ccc(C(=O)NCCN(C)C)cn2c1N(C)Cc1ccc(OC)cc1
  -5 | -10
O=C(CSc1ccc2nnc(-c3ccccc3)n2n1)Nc1nc2ccccc2s1
  1 | 33
O=C(N/N=C\c1ccc(O)cc1O)c1cc(-c2ccccc2)nc2ccccc12
  -9 | -15
Fc1ccc(SCc2csc(-c3ccc(C(F)(F)F)cc3)n2)c(F)c1
  1 | -2
c1cc(CN2CCCNCCNCCCNCC2)ccc1CN1CCCNCCNCCCNCC1
  -8 | -12
CNC(=O)CSc1nc(-c2ccccc2)c(NC(=O)c2ccccc2OC)s1
  -4 | -9
COC(=O)c1cn([C@@H]2C[C@@H](C(=O)Nc3ccc4c(c3)COC4)N(Cc3cc(C)c(OC)cc3C)C2)nn1
  9 | 7
CC(OC(=O)c1ccc(CO)cc1)C(=O)N(C)c1ccccc1 (stereo not given)
  2 | -3
CC(=O)Nc1cccc(C(=O)N2CCN(c3ccccc3F)CC2)c1
  2 | 1

Entries of single compounds as entered above. Screens in order: NPYLR7 agonist	NPYLR7 agonist max-min
`CC(OC(=O)c1ccc(CO)cc1)C(=O)N(C)c1ccccc1` (stereo not given) as listed: 2	-3
`CN1CCN(c2ccc(NC(=O)COc3ccccc3F)cn2)CC1` as listed: 1	0
`O=C(CSc1ccc2nnc(-c3ccccc3)n2n1)Nc1nc2ccccc2s1` as listed: 1	33
`Cc1ccccc1CN(Cc1ccccc1)Cc1cccn1Cc1cccc(F)c1` as listed: 21	30
`c1cc(CN2CCCNCCNCCCNCC2)ccc1CN1CCCNCCNCCCNCC1` as listed: -8	-12

Further structures:
Every second line gives: NPYLR7 agonist | NPYLR7 agonist max-min
O=C1OC(c2ccc3c(c2)OCO3)=NC1=Cc1ccsc1
  -3 | -5
CC1CC(C)CN(CCOCCSc2ccccc2)C1 (stereo not given)
  3 | 7
CC(C)Cc1nc(C(=O)NCC2CCC2)cs1
  6 | 2
COc1cccc(C=NN2CCN(Cc3ccccc3)CC2)c1O
  -4 | -7
Cc1ccc(NC(=O)c2sc(=O)n(Cc3ccc(F)cc3)c2C)cc1
  5 | 2
Nc1ncc(C(=O)N2C[C@@H]3[C@@H]4CC[C@@H](C4)[C@@H]3C2)c(-c2ccccc2)n1
  27 | 16
CCC(C(=O)Nc1nnc(SCc2c(F)cccc2F)s1)c1ccccc1 (stereo not given)
  -2 | -2
N#CC(C(=S)Nc1ccccc1)c1nnc(N2CCOCC2)n1-c1ccccc1 (stereo not given)
  2 | 1
CCCCn1c(=O)c2c(nc3n(CC4CCCO4)c(C)cn23)n(C)c1=O (stereo not given)
  4 | 17
Cc1ccccc1-n1c(SCC(=O)NCC2CCCO2)nnc1-c1ccccc1Cl (stereo not given)
  -7 | -3
CCS(=O)(=O)Oc1ccc(CN(CC(C)C)C(=O)c2ccc(C(C)(C)C)cc2)cc1
  1 | 6
COC(=O)c1cccc(C(=O)N2CCC3(CC2)CC3C(=O)NCCc2cccc(OC)c2)c1 (stereo not given)
  20 | 11
OCc1ccc(Cl)c(NCc2cnc(Cl)s2)c1
  0 | -1

Some of these compounds in order of length of the SMILES, descending.
Every second line gives: NPYLR7 agonist | NPYLR7 agonist max-min
CCS(=O)(=O)Oc1ccc(CN(CC(C)C)C(=O)c2ccc(C(C)(C)C)cc2)cc1
  1 | 6
N#CC(C(=S)Nc1ccccc1)c1nnc(N2CCOCC2)n1-c1ccccc1 (stereo not given)
  2 | 1
O=C1OC(c2ccc3c(c2)OCO3)=NC1=Cc1ccsc1
  -3 | -5

Screening results from PubChem.
